Screens from PubChem.
T cruzi inh – T. cruzi replication inhibition; inhibition, % (no concentration beside the values); actives 1.4% (n = 300,000); T. cruzi beta-gal in NIH3T3, luminescence, 90 h;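 active = mean inhibition across valid replicates above about 55%, limit read from the data; inconclusive = mean below that limit but half or more replicates reach it; inactive = mean below it, under half of replicates reach it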;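 note: signal also drops with host cell toxicity which is not excluded here; 0% = plate median of DMSO wells and 100% = zero luminescence signal; higher percent means less beta-gal luminescence so fewer parasites; stock transfer was 50 nL into about 50 µL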
RanGTP-Impb inh – inhibitors of RanGTP-importin-beta interaction, primary screen, biochemical, FRET, CFP-Ran, YFP-importin-beta, homogeneous. cell-free CFP-Ran/YFP-importin-beta FRET ratio. actives 1.1% (n = 300,000). AID 2216. inhibition, % (test concentration not listed);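 active = most replicates above 15%; inconclusive = exactly half above 15%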;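 note: 0% = DMSO wells and 100% = Ran loaded with GDP instead of GTP; wells of about 40 µL received 100 nL stock; the first replicate is given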
A1 inh – inhibitors of the anti-apoptotic protein A1, read as caspase activation | MEF A1-2A-BIM cells, Caspase-Glo 3/7 luminescence, 3 h; percent of clofoctol response, vehicle zero | AID 2462 | actives 0.066% (n = 330,000) | caspase activation, % (concentration not given with the values);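 active = over half of replicate activation scores above 10%, or exactly half above 10 with the replicate mean above 10; inconclusive = replicate mean below 10 yet half the replicates above 10; inactive = over half of replicates below 10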;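 note: wells of about 30 µL received 50 nL stock; many hits fall short of the cut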
Vif TR-FRET – HIV-1 Vif–A3G interaction blockers – biochemical, TR-FRET, GST-Vif 1-94, biotin-A3G peptide, dose response retest, primary screen (AID 1117319) | actives 0.57% (n = 260,000) | inhibition, %, or IC50 in µM where a hit was titrated | TR-FRET GST-Vif / biotin-A3G peptide binding; higher % means a stronger effect; test concentration not given here; strong numbers were not always called active;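 active = above the screen mean plus three standard deviations and confirmed in dose response; inconclusive = results disagree or hit not tested in dose response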;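 note: Vif residues 1-94 fused to GST binding biotinylated APOBEC3G peptide 110-148; 0% = full assay without inhibitor and 100% = GST in place of GST-Vif; retest series ran down from 100 µM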
MLL AF4-AF9 inh – MLL-AF4/AF9 protein interaction inhibition; P42568; AID 651704; AlphaScreen, biotin-AF4 peptide binding to FLAG-AF9; actives 0.47% (n = 350,000); inhibition, % at 10 µM;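 active = every replicate reaching a set inhibition limit, whatever the replicate mean, cut at about 25% in these data; inconclusive = mean inhibition reaches that limit but some replicates miss it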;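 note: 0% = plate neutral control median and 100% = total signal loss; the record names both 10 and 1 µM as test concentration; the first replicate is given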
Target sequence (P42568 whole entry, looked up): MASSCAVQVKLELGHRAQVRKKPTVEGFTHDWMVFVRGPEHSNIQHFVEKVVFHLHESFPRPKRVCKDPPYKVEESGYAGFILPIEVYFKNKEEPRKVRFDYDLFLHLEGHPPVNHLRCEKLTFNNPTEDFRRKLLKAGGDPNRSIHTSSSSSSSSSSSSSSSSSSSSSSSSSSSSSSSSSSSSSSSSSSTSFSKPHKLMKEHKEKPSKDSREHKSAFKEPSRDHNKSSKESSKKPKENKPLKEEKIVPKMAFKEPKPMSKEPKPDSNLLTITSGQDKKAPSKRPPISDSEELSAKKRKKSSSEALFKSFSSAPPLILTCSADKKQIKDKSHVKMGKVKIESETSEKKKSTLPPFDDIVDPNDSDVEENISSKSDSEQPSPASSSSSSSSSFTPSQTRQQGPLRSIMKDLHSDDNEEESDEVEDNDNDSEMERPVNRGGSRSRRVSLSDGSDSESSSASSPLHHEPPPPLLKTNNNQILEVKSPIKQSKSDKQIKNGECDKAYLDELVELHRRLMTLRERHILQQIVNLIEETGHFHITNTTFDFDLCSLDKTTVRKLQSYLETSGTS
LANA-H2B inh – blocks KSHV LANA binding to histone H2A/H2B; Q9QR71; cell-free LANA-H2A/H2B peptide, fluorescence polarization; inhibition, % (test concentration not listed); actives 0.6% (n = 320,000); in the data active = inhibition mostly above about 10%, no sharp cut-off; inactive = mostly below about 6.7%;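 note: stock transfer was 7.5 nL into about 10 µL; 0% = median of vehicle wells and 100% = median of positive control wells; one replicate is shown; the record names a cut of 25% in any replicate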
Beta cell apopt – blocks beta cell apoptosis; INS-1E cytokine-induced death, ATP luminescence, 48 h; percent of positive-control rescue, neutral wells zero; protection from apoptosis, % (test concentration not listed); actives 0.8% (n = 300,000);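 active = all replicates at 75% or more, or half of them and the mean; inconclusive = half reach 75% but not the mean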;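 note: 0% = cytokine-treated negative control wells and 100% = positive control rescue; higher means more ATP so stronger rescue from cytokine killing; wells of about 40 µL received 100 nL stock; the first replicate is given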
Calb FLC – C. albicans growth modulation with fluconazole; C. albicans CaCi-2 (fluconazole-resistant clinical isolate) + fluconazole, Alamar Blue growth, 48 h; growth inhibition, % (concentration not given with the values); actives 0.57% (n = 300,000); AID 1979;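 active = most replicates above 75%; inconclusive = exactly half above 75%; inactive = most below 75%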;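 note: all wells also contain fluconazole at 8 µg/ml as a sub-toxic cotreatment; 0% = median of DMSO wells and 100% = median of geldanamycin control wells; wells of about 8 µL received 7.5 nL stock; the first replicate is given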
Active calls of the source: *; ? = inconclusive; . = no result given.

SMILES	T cruzi inh	RanGTP-Impb inh	A1 inh	Vif TR-FRET	MLL AF4-AF9 inh	LANA-H2B inh	Beta cell apopt	Calb FLC
COc1ccc([N+](=O)[O-])cc1N(CC(O)CN1CCOCC1)S(=O)(=O)c1ccccc1 (stereo not drawn)	-7	-1.2	1.3	.	3.2	-11	-2	-5
CCN(C(=O)COC(=O)Cc1coc2cc(C)ccc12)c1c(N)n(Cc2ccccc2)c(=O)[nH]c1=O	.	.	-0.6	-2%	7.3	-1.1	-1	.
N#CC1=C(S)N=C(N)C(c2nc(-c3ccccc3)cs2)C12CCCC2 (stereo not drawn)	6	3.2	1.2	17%	.	-0.6	5	-6
Cc1ccc(Oc2ncccc2/C=N/O)cc1	2	-4.7	0.0	6%	.	-2.1	-5	0
O=C(/C=C/Nc1ccc(F)cc1Br)c1ccccc1	2	4.2	-8.7	11%	.	-3.5	18	4
CCCCNC(=O)[C@H]1N2C(=O)c3c(ccc(OC)c3OC)C2SC1(C)C (stereo partly drawn)	5	-1.0	1.3	-6%	-2.3	-0.4	1	2
O=S(=O)(O)c1cccnc1SCc1ccccc1	3	-1.4	0.2	.	-1.7	-0.3	.	-5
Cc1cccc(NC(=O)CCNC(=O)c2ccccc2Cl)n1	-2	4.3	-0.9	2%	-2.1	0.7	.	11
Cc1cccc(-c2cc3c(N=O)c4ccccc4c-3n[nH]2)c1	62*	5.1	-15	18%	-6.3	-2.4	26	-25
CC(=O)N1c2ccc(S(=O)(=O)N3CCC(C(=O)N4CCN(c5ccccc5)CC4)CC3)cc2CC1C (stereo not drawn)	7	0.7	-0.5	-3%	-11	4.6	6	4
O=C(NCC1COc2ccccc2O1)C1CCCN(S(=O)(=O)c2cccc3nsnc23)C1 (stereo not drawn)	-5	-0.4	0.0	3%	.	0.6	-8	1
N/C(=N\OC(=O)CCCOc1ccccc1)c1cccc([N+](=O)[O-])c1	5	-0.1	-0.8	-7%	-6.5	-3.2	-19	-1
COc1ccc(NC(=S)NNC(=O)C(C)n2nc(C)c([N+](=O)[O-])c2C)cc1 (stereo not drawn)	-5	2.4	0.3	8%	-14	-1.1	1	-21
CCOC(=O)c1sc(=S)n(-c2ccccc2)c1NC(C)=O	5	1.1	1.1	-5%	-6.4	-4.4	-7	-1
COc1ccc(-c2noc(-c3ccccc3C(=O)Nc3cccc(OC)c3)n2)cc1	28	3.5	-0.5	0%	.	-3.3	-4	2
O=C(Nc1ccccc1N1CCN(C(=O)c2ccc(Cl)cc2)CC1)c1cccc(F)c1	43	4.0	0.4	-11%	0.8	0.7	16	-2
COc1ccc(C2CC(=O)c3c([nH]c(C(=O)OC(C)C)c3C)C2)cc1OC (stereo not drawn)	-6	-0.3	-0.1	.	0.6	1.8	8	-4
COC(=O)c1ccc(NC(=O)c2ccc3nsnc3c2)cc1	12	-0.2	-3.7	.	-2.8	2.5	-1	5
Cc1[nH]c(=O)[nH]c(=O)c1N1CCOCC1	-8	0.5	0.3	5%	-2.1	0.4	-2	-1
COc1ccc(NC(=O)CCNC(=O)C2CCN(S(=O)(=O)c3ccc(OC)cc3)CC2)cc1	-9	3.0	-0.3	.	-6.4	-0.8	.	-4
CC(C)C(=O)N1CCC(Cc2ccccc2)CC1	2	4.4	1.1	-12%	0.8	-2.1	-5	-10
COC(=O)C1CCN(C(=O)Nc2ccccc2)CC1	-23	6.7	-0.6	0%	0.3	3.6	0	-8
O=C(Nc1cccc(F)c1)Nc1cccc(Cl)c1	30	4.8	-0.7	.	-1.4	-5.5	17	32
CC(NS(=O)(=O)c1ccc2c(c1)OCCO2)c1ccccc1 (stereo not drawn)	0	?	0.5	-2%	-1.2	-2.9	-5	-11
COCCCN(C(=O)c1ccco1)c1nc(-c2ccc(OC)cc2)cs1	14	1.0	0.2	-8%	1.0	-0.5	0	62
CCOc1ccccc1NC(=O)Cn1c(=O)oc2cc(Cl)ccc21	-6	3.8	-0.5	7%	3.9	-1.2	0	4
Cc1ccc(/C=N/NC(=O)CSc2nc3ccccc3s2)o1	9	-2.6	-1.6	.	-0.4	2.4	-2	-25
Cc1cc(C)cc(NC(=O)COC(=O)CCc2ccc(S(=O)(=O)N3CCOCC3)cc2)c1	-18	4.1	0.0	-13%	-2.0	-0.5	-1	-15
CNc1nc(Sc2ccc(C)cc2)cc(C(F)(F)F)n1	-2	0.3	-0.6	27%	.	4.3	-2	36
CC1(C)CC(NS(=O)(=O)c2ccc(S(N)(=O)=O)cc2)CC(C)(C)N1	-12	2.2	1.0	.	7.4	-5.1	-8	.
COC(=O)c1cc(C(=O)NCc2ccc3c(c2)OCO3)cc([N+](=O)[O-])c1	26	-5.4	0.8	.	5.9	0.8	-5	-1
COc1cccc(/C=C/c2n[nH]c(=O)c(C#N)c2C)c1	-10	2.3	-0.3	.	-1.6	1.6	3	6
CCCCOc1ccc(C(=O)OCC(=O)N2CCCCCC2)cc1	.	.	0.4	-6%	1.7	-2.2	7	.
CC(C)(C)c1cc(C(=O)O)n(Cc2ccc(Cl)cc2Cl)n1	29	-0.5	0.0	.	-0.8	1.9	-4	-2
Cc1cc(C)c(S(=O)(=O)N2CCCC(C(=O)NCc3ccncc3)C2)c(C)c1 (stereo not drawn)	-10	5.1	0.3	.	3.4	-1.5	3	3
CN1CC=C2C(C#N)=C(N)C(C#N)(C#N)[C@H](c3cccc(Cl)c3)C2C1 (stereo partly drawn)	2	45*	-0.4	8%	.	2.8	-5	7
O=c1oc2c(O)cccc2cc1-c1nc2ccccc2[nH]1	-18	133*	-8.8	.	-2.0	2.9	24	9
COc1ccc(CN2CN(C(C)C)CSC2=S)cc1	27	?	?	11%	.	3.9	-13	-8
COc1ccc(S(=O)(=O)N2CCN(C(=O)c3cc(-c4ccc(C)cc4)n[nH]3)CC2)cc1	3	2.3	-0.1	5%	-3.2	-2.5	2	0
O=C(N/N=C/C1CC=CCC1)c1cc2ccccc2cc1O (stereo not drawn)	-4	-10	-0.2	5%	.	-1.2	-14	54
COc1ccc(C(=O)OCC(=O)Nc2ccc(Cl)cn2)cc1	9	-3.4	0.8	.	0.8	-1.4	-4	-16
CSCCC(C(=O)NC1=NCCS1)N1C(=O)c2ccccc2C1=O (stereo not drawn)	-10	-0.5	-0.1	-3%	.	-3.3	-7	-8
Clc1ccc(C2[C@H]3CN(Cc4ccc(-c5ccccc5)cc4)[C@H](c4ccccc4)C34CC2(c2ccccc2)C4)cn1 (stereo partly drawn)	1	-2.0	1.0	.	2.7	5.7	5	4
Cc1nc2c(C)cccc2cc1C(=O)N/N=C/c1ccc(N(C)C)cc1	-19	3.7	-0.1	27%	-0.7	0.6	-6	-14
COc1ccc(C(CNC(=O)c2ccc(C)o2)N2CCOCC2)cc1 (stereo not drawn)	-3	-4.6	0.1	4%	1.5	0.0	2	8
Cc1cccc(C)c1NS(=O)(=O)c1ccc(-c2ccc(=O)[nH]n2)o1	-13	?	-0.2	.	1.4	-3.0	1	-17
COC(=O)c1ccc(/C=N\N2CCN(c3ccccc3)CC2)cc1	-23	-1.8	0.2	.	-7.3	-1.2	-11	-3
COC(=O)c1ccc2c(c1)NC(=O)C1CCCN21 (stereo not drawn)	0	-2.6	1.6	?	.	-5.2	-1	1
CN(CC(=O)N(C)CC(=O)Nc1c(Cl)cccc1Cl)Cc1ccc(Br)s1	.	.	0.1	2%	0.0	2.6	-1	.
O=C(CCCN1C(=O)/C(=C/c2ccccc2Cl)SC1=S)NNC(=O)c1ccc(Cl)cc1	-2	-0.3	-2.0	6%	-22	-4.0	-14	12
CC(Sc1ccc(Cl)cc1)C(=O)NNC(=O)c1ccco1 (stereo not drawn)	.	.	0.9	-9%	-3.4	0.4	2	.
C=CCn1c(C)nc2c(sc3nc4c(cc32)COC(C)(C)C4)c1=O	-4	0.1	0.6	.	-1.3	-0.2	7	1
Cc1cc(C)n2nc(Cc3ccccc3)nc2n1	-5	7.3	1.5	1%	.	-2.3	-3	-8
Cc1occc1C(=O)Nc1ccc2c(c1)CCC2	9	-2.0	-6.1	8%	7.5	0.8	4	-6
Cc1c(N(C(=O)CNC(=O)c2ccccc2)C2(C(=O)NC3CCCC3)CCCCC2)c(=O)n(-c2ccccc2)n1C	0	0.3	-0.6	2%	-2.8	-2.2	3	17
CC(NC(=O)c1ccc(Cl)cc1)C1CC2CCC1C2 (stereo not drawn)	-10	-1.6	0.1	.	0.3	-1.3	.	-7
COc1ccc(-n2c(CN3CCN(c4ccccc4)CC3)nc3ccc([N+](=O)[O-])cc3c2=O)c(OC)c1	30	-0.1	-0.5	.	7.0	1.2	-1	-6
C/C(=N\Nc1cc(N2CCOCC2)ncn1)c1ccc(O)cc1	18	1.4	0.5	.	6.6	-2.7	-3	4
Clc1ccc(OCCCN2CCCC2)cc1Cl	48	0.5	0.0	-1%	.	5.0	1	-16
COc1cccc(C(=O)N2CCOCC2)c1OC	-12	4.2	0.4	-5%	-1.9	-1.6	-4	3

Sorted by value in RanGTP-Impb inh (highest first): 3 of the compounds above
SMILES | RanGTP-Impb inh
Cc1cc(C)c(S(=O)(=O)N2CCCC(C(=O)NCc3ccncc3)C2)c(C)c1 (stereo not drawn) | 5.1
COc1ccc(S(=O)(=O)N2CCN(C(=O)c3cc(-c4ccc(C)cc4)n[nH]3)CC2)cc1 | 2.3
Clc1ccc(C2[C@H]3CN(Cc4ccc(-c5ccccc5)cc4)[C@H](c4ccccc4)C34CC2(c2ccccc2)C4)cn1 (stereo partly drawn) | -2.0

Other records follow.
SMILES	T cruzi inh	RanGTP-Impb inh	A1 inh	Vif TR-FRET	MLL AF4-AF9 inh	LANA-H2B inh	Beta cell apopt	Calb FLC
CCNc1ccc(P(=O)(c2ccccc2)c2ccccc2)cc1	17	4.4	0.5	15%	3.7	-2.7	-4	1
Cc1c(C)n2c(SCC(=O)N3CCOCC3)nnc2[nH]c1=O	-2	-5.2	0.5	4%	0.3	1.0	-8	3
COc1ccccc1CN1C(=NC(=O)C2CCCCC2)SC2CS(=O)(=O)CC21 (stereo not drawn)	20	0.6	0.5	-2%	-0.7	1.1	-2	10
Cc1cc(C)c(NC(=S)N(C)C)c(C)c1	-2	-4.3	-0.1	-6%	-6.2	-5.9	-3	1
COc1ccccc1N(CC(=O)NCCSCc1ccccc1Cl)S(C)(=O)=O	-13	0.2	0.7	-2%	-23	-8.8	2	16
C=CCN1CC(O)=C(c2nc3ccccc3[nH]2)C1=N	-4	7.2	0.6	6%	0.9	4.7	6	-2
Cc1nc(C)n(CCNC(=O)c2ccco2)n1	-4	6.4	-1.2	4%	-1.1	-0.1	-3	5
Cc1ccc(S(=O)(=O)N2c3ccc(S(N)(=O)=O)cc3CC2C)cc1 (stereo not drawn)	3	-3.5	-0.3	20%	-0.4	-3.1	5	-5
COc1ccc(OC)c(CCNC(=O)c2cccc(NC3=NC4CS(=O)(=O)CC4S3)c2)c1 (stereo not drawn)	-5	-3.3	0.5	.	5.0	-1.4	-5	-10
Cc1ccc(SCc2nc(-c3ccncc3)no2)cc1	-1	-1.1	0.9	12%	.	0.2	-4	-6
